Screening data deposited in PubChem BioAssay by several laboratories.
FGF22 binding = binders of human FGF22 protein, primary screen, FGF22 synaptogenesis inhibitor project, biophysical, thermal shift, single point. recombinant FGF22 thermal shift, SYPRO orange fluorescence; percent of sucrose octasulfate shift, DMSO zero. hit rate 1.5% among 340,000. calls only at 9.99 µM. Fibroblast growth factor 22 (Homo sapiens), Q9HCT0. AID 651658, 2012;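 active = melting point raised past a set limit in the mean and every replicate; inconclusive = no clear call; three in four hits are not shown here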
Target sequence (Q9HCT0 whole entry, looked up): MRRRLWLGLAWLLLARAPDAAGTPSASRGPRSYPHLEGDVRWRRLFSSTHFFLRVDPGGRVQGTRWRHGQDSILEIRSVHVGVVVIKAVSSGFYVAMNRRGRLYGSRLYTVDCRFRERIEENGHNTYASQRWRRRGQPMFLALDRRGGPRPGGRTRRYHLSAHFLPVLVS
E coli growth = E. coli growth inhibition, primary screen, OD600 | OD600 absorbance (no concentration beside the values) | hit rate 0.21% among 330,000 | Escherichia coli growth, 23 h; hits give low values;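 active = OD600 absorbance below the run mean of sample wells minus 3.6 SD, in any replicate, cut at about 0.56 in these data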;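 also: stock transfer was 300 nL into about 60 µL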
A1 inh = caspase 3/7 activation in MEF A1-2A-BIM cells, primary screen, A1 inhibitor project, cell-based, luminescence, HTS; Caspase-Glo 3/7 luminescence, 3 h; percent of clofoctol response, vehicle zero; caspase activation, % (concentration not given with the values); hit rate 0.066% among 330,000;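 active = over half of replicate activation scores above 10%, or exactly half above 10 with the replicate mean above 10; inconclusive = replicate mean below 10 yet half the replicates above 10; inactive = over half of replicates below 10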;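 also: wells of about 30 µL received 50 nL stock; many hits fall short of the cut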
Ecoli rRNA inh = reduced GFP signal of wild-type E. coli, primary screen, bacterial rRNA inhibitor project, GFP/RFP fluorescence, OD600, single point | E. coli WT GFP vs humanized-ribosome RFP mutants, 24 h; hits give low values; DMSO median 0, no signal -100 | GFP signal change (wild-type ribosome), % (test concentration not listed) | hit rate 1.6% among 350,000 | AID 720706, 2013;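 active = significant combined selectivity score with lowered wild-type GFP, culture density cut under 30%, mutant RFP and density less affected; inactive = any of these conditions unmet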; also: one replicate is shown; some compounds called inactive have numbers as strong as hits
AF4-AF9 inh = inhibitors of AF4 peptide binding to AF9, primary screen, biochemical, AlphaScreen, biotin-AF4 peptide, FLAG-AF9, single point; Protein AF-9 (Homo sapiens), P42568; inhibition, % at 10 µM; hit rate 0.47% among 350,000; AID 651704, 2012;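 active = every replicate reaching a set inhibition limit, whatever the replicate mean, cut at about 25% in these data; inconclusive = mean inhibition reaches that limit but some replicates miss it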;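 also: 0% = plate neutral control median and 100% = total signal loss; the record names both 10 and 1 µM as test concentration; the first replicate is given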
Target sequence (P42568 whole entry, looked up): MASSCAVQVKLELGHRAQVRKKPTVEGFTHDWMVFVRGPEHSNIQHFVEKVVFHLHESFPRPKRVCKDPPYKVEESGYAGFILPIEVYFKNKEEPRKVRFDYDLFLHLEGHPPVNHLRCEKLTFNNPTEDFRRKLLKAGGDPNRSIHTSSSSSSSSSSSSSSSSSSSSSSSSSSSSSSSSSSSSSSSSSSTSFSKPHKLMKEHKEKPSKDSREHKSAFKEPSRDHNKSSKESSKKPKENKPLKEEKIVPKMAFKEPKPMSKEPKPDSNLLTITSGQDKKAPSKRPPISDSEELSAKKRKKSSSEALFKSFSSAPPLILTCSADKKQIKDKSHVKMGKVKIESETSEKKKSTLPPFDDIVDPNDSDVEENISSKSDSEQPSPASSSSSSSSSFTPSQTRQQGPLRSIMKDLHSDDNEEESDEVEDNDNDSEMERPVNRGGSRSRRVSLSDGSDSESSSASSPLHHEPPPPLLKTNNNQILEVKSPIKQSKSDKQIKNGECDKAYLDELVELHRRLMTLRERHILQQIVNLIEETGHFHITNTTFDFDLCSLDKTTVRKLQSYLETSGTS
Beta apoptosis = inhibitors of cytokine-induced beta cell apoptosis, primary screen, luminescence; INS-1E cytokine-induced death, ATP luminescence, 48 h; percent of positive-control rescue, neutral wells zero; protection from apoptosis, % (no concentration beside the values); AID 435005, 2010; hit rate 0.8% among 300,000;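 active = all replicates at 75% or more, or half of them and the mean; inconclusive = half reach 75% but not the mean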;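 also: 0% = cytokine-treated negative control wells and 100% = positive control rescue; higher means more ATP so stronger rescue from cytokine killing; wells of about 40 µL received 100 nL stock; the first replicate is given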
T cruzi repl = inhibitors of intracellular T. cruzi growth, primary screen, luminescence, NIH3T3 host cells | T. cruzi beta-gal in NIH3T3, 90 h | inhibition, % (concentration not given with the values) | hit rate 1.4% among 300,000;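 active = mean inhibition across valid replicates above about 55%, limit read from the data; inconclusive = mean below that limit but half or more replicates reach it; inactive = mean below it, under half of replicates reach it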;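 also: signal also drops with host cell toxicity which is not excluded here; 0% = plate median of DMSO wells and 100% = zero luminescence signal; higher percent means less beta-gal luminescence so fewer parasites; stock transfer was 50 nL into about 50 µL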
UCH37 DUB inh = inhibitors of human UCH37 deubiquitinase, primary screen, biochemical, Ub-AMC cleavage, fluorescence | purified proteasome/UCH37 | inhibition, % (no concentration beside the values) | hit rate 0.33% among 330,000 | AID 588478, 2011;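 active = mean of two replicates above 20%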;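 also: 0% = compound-free wells with enzyme and 100% = wells lacking proteasome; stock transfer was 100 nL into about 20 µL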
Target sequence (Q9Y5K5 whole entry, looked up): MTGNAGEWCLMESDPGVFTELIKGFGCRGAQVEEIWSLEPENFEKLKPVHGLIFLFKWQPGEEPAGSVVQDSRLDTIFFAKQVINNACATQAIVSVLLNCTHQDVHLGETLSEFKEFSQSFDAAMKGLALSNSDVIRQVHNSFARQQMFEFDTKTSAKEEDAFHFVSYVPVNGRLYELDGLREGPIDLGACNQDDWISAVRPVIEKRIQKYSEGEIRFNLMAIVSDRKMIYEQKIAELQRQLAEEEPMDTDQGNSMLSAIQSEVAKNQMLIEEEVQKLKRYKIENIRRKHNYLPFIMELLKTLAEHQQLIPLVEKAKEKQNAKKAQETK
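Material: human UCH37 enzyme supplied as purified proteasome complex / Amount: 0.15 nM proteasome as dispensed / Buffer or medium: pH 7.4 Tris-HCl (50 mM) with ovalbumin, ATP-MgCl2, DTT / Times: preincubation 30 min, reaction 25 min, room temperature / Technique: AMC fluorescence from Ub-AMC cleavage, excitation 355 nm, emission 460 nm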
Ecoli rRNA inh OD600 = recorded beside Ecoli rRNA inh, whose call it bears; OD600 change, %; measured here: OD600 growth;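 optical density of the mix in the first replicate; 0 = DMSO median and -100 = no signal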
Ecoli rRNA inh RFP = also measured in Ecoli rRNA inh; calls as there; RFP signal change, %; measured here: RFP humanized mutant strains;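 first replicate; 0 = DMSO median and -100 = no signal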
* hit, by the source's call; i = inactive; ? = inconclusive; · = no result given. Some of the compounds tested. The share of hits here may be higher or lower than overall.

SMILES | FGF22 binding | E coli growth | A1 inh | Ecoli rRNA inh | Ecoli rRNA inh OD600 | Ecoli rRNA inh RFP | AF4-AF9 inh | Beta apoptosis | T cruzi repl | UCH37 DUB inh
O=C(/C=C/c1cccc(F)c1)Nc1cc(S(=O)(=O)N2CCOCC2)ccc1N1CCCC1 | i | 0.67 | -0.7 | -2 | -8 | -1.5 | 11 | 0 | 14 | 4.0
O=C(Cc1ccccc1[N+](=O)[O-])N/N=C/c1cccnc1 | i | · | 0.9 | 12 | 12 | -1.9 | -1.5 | -1 | 4 | ·
Cc1ccc(C)c(/C(O)=C2\C(=O)C(=O)N(CCCn3ccnc3)C2c2ccncc2)c1 (stereo not given) | · | 0.7 | 0.2 | · | · | · | · | 1 | 1 | 12
Cc1cc2nc(N)sc2cc1[N+](=O)[O-] | · | 0.66 | -2.5 | · | · | · | · | -3 | -4 | 10.0
O=C(NC1CCCCC1)C(c1ccccc1)N1CCOCC1 (stereo not given) | · | 0.78 | -1.1 | · | · | · | · | 0 | 3 | -0.5
CN(C(=O)COC(=O)c1nc(Cl)c(Cl)c(Cl)c1Cl)C1CCS(=O)(=O)C1 (stereo not given) | i | 0.64 | · | -3 | 0 | 7.2 | 1.5 | · | 36 | 2.4
Cc1ccc(S(=O)(=O)N(C)S(=O)(=O)c2ccc(C)cc2)cc1 | i | 0.71 | 0.3 | -28 | -27 | -16 | -0.5 | 18 | 25 | 2.2
CCOc1c(Br)cc(C(N)=O)cc1OCc1ccccc1 | i | 0.71 | 0.5 | -37 | -44 | -8.5 | 2.4 | -1 | 3 | 4.3
O=C(O)CCc1ccc(-c2ccccc2)n1-c1cccc(C(=O)O)c1 | i | 0.68 | 0.0 | -28 | -36 | -4.9 | -1.9 | · | -11 | -0.6
COc1cc2[nH]c(=S)nc(NCc3ccccc3)c2cc1OC | i | 0.69 | -1.4 | -16* | 9.0* | 0.7* | -0.1 | 3 | 0 | -2.9
CCNC(=S)NS(=O)(=O)c1ccc(F)cc1 | i | 0.67 | 1.0 | 10 | 13 | 1.2 | -6.1 | -4 | -16 | 0.3
COc1ccc(-c2cn[nH]c2C)cc1OC | i | 0.66 | -0.8 | 16 | 11 | -0.3 | -3.9 | -8 | -5 | -0.4
Cc1nc2scc(C)n2c(=O)c1S(=O)(=O)Nc1ccc(N2CCN(S(C)(=O)=O)CC2)cc1 | i | 0.69 | 0.3 | -2 | 5 | 0.4 | -16 | 3 | 10 | 8.7
COC(=O)c1ccc(/C=N/NC(=O)c2ccc3nc[nH]c3c2)cc1 | i | · | -0.7 | 5 | 9 | 1.8 | 4.7 | -3 | -12 | ·
Cc1ccc(Cn2ccc(NC(=O)c3cc(C(C)C)on3)n2)cc1 | i | 0.75 | -0.2 | 6 | -29 | -2.8 | -0.7 | -2 | 33 | 5.9
Cc1ccccc1-c1nnc(SCC(=O)Nc2cccc(C)c2C)o1 | · | 0.72 | 0.4 | · | · | · | · | -7 | -7 | 5.2
O=C(NNC(=O)c1ccc(Br)s1)NC1CCCCC1 | i | 0.69 | 0.5 | 14 | 11 | -0.6 | -5.0 | -2 | -7 | 2.9
C[C@H](NC(=O)N1CCn2c1nc1ccccc12)C(=O)NC1CC1 | i | 0.7 | -0.2 | 14 | 5 | -1.6 | -1.3 | -4 | -14 | 3.8
COCCNc1nc(N)c([N+](=O)[O-])c(NCc2ccccc2)n1 | i | 0.7 | -1.4 | 7 | 6 | 0.2 | -0.2 | -5 | -18 | 9.5
BrC(=C\c1ccccc1)/C=N/Nc1ccc2nncn2n1 | i | · | -0.3 | -7 | 9 | -1.9 | 4.3 | 0 | -17 | ·
CN1C(=O)CC(N2CCC(C(N)=O)(N3CCCCC3)CC2)C1=O (stereo not given) | · | 0.72 | 0.3 | · | · | · | · | · | -6 | 2.6
COc1cccc(NC(=O)CN(C)C(=O)CSc2nc(C)cc(C)n2)c1 | i | 0.64 | 0.6 | 12 | 12 | 2.1 | 0.0 | 4 | · | 0.6
COc1cc(C(=S)N2CCCC2)ccc1OS(=O)(=O)c1ccc(NC(C)=O)cc1 | i | 0.73 | 0.5 | -11 | -15 | 0.9 | -0.5 | 3 | 2 | 1.3
Cc1cc(C(=O)NCCN2CCOCC2)ccc1[N+](=O)[O-] | i | 0.65 | 0.5 | 7 | 4 | 1.6 | -0.9 | -4 | -3 | 0.5
COc1ccc(NC(=O)c2cc(C(C)C)on2)c(OC)c1 | i | 0.71 | -0.6 | -16 | -17 | -0.8 | -4.2 | 0 | -2 | 8.0
O=C1CCCN1CCCN1CC(C(=O)N(CCO)Cc2ccccc2)CCC1=O (stereo not given) | i | 0.72 | 0.3 | 6 | 13 | -0.8 | -1.5 | -2 | -12 | -3.1
O=C(Nc1ccc(OCc2ccccc2)cc1)Nc1cccnc1 | i | 0.65 | -0.6 | 0 | 1 | -0.2 | -0.1 | 5 | -3 | -0.2
Cc1nn(C)c(C)c1C(C)NC(=O)c1ccc(OC2CCN(Cc3ccccn3)CC2)cc1 (stereo not given) | i | 0.68 | · | 1 | 4 | 2.2 | -0.9 | · | -17 | 0.1
Cc1cccc(CCNC(=O)c2cc(S(=O)(=O)N3CCCCC3)c[nH]2)c1 | i | 0.72 | 0.1 | -17 | -22 | -0.8 | -3.7 | -2 | 6 | 5.8
O=C(COC(=O)C(c1ccccc1)c1ccccc1)NCc1ccco1 | i | 0.62 | 0.1 | -4 | -5 | 0.2 | 4.6 | -6 | 11 | 1.0
O=C(c1cnn2c(C(F)(F)F)cc(-c3ccccc3)nc12)N1CCCc2ccccc21 | i | 0.71 | -0.7 | 14 | 14 | -11 | -20 | -1 | -1 | 3.5
Cc1nc(NC(=O)CN2CCOCC2)sc1-c1ccccc1 | · | 0.76 | 1.1 | · | · | · | · | 2 | 4 | -1.8
O=C1[C@H]2[C@H](C=CC[C@H]2C(=O)N2CCOCC2)CCN1Cc1ccccc1 | i | · | -0.8 | -2 | 5 | -2.3 | -5.5 | -2 | -11 | -0.1
NS(=O)(=O)c1ccc(CNC(=O)c2cc(-c3ccccn3)nc3ccc(Cl)cc23)cc1 | i | 0.73 | 0.3 | 23 | 13 | 15 | -1.0 | · | -16 | 3.1
CCOc1ccc(NS(=O)(=O)c2ccc(C(=O)NCC(c3ccc(OC)cc3)N3CCOCC3)cc2)cc1 (stereo not given) | i | 0.6 | 0.7 | -5 | -13 | 8.3 | -3.5 | 3 | 17 | 1.4
CC(C)C(NC(=O)c1cccs1)c1nnc(SCC(=O)Nc2nccs2)n1C (stereo not given) | i | 0.71 | 0.6 | 3 | 5 | -3.3 | 2.1 | -6 | 11 | 1.3
CC(C)(C)C(=O)OCc1nc(-c2ccc(O)c(O)c2)cs1 | i | 0.59 | 0.6 | -26* | -13* | -1.1* | 7.5 | -3 | -12 | 3.8
O=C(c1cc(COc2ccc(F)c(F)c2)on1)N1CCN(C/C=C/c2ccccc2)CC1 | i | 0.7 | · | -5 | -52 | 7.4 | -0.8 | · | 49 | 2.5
N=c1c(C(=O)NCC2CCCO2)cc2c(=O)n3ccccc3nc2n1C1CCCCC1 (stereo not given) | i | 0.68 | -0.4 | 10 | 1 | -2.7 | -2.7 | 2 | -9 | i
COc1ccc(NC(=S)NCCc2ccccc2OC)c(OC)c1 | · | 0.65 | 0.4 | · | · | · | · | -1 | -6 | 0.1
CCOC(=O)CSc1nc(Cc2ccccc2)nc2ccccc12 | i | 0.68 | 0.6 | -39 | -53 | -6.0 | -4.0 | 2 | -9 | 4.6
CC(=O)Nc1ccc(NC(=O)CSc2nc3[nH]ncc3c(=O)n2-c2ccccc2)cc1 | i | 0.68 | 0.2 | 17 | 7 | 2.5 | ? | · | -10 | 0.7
CCc1[nH]nc2c1C1(C(=O)N(Cc3ccccc3)c3ccccc31)C(C#N)=C(N)O2 (stereo not given) | · | 0.61 | 0.5 | -39 | -32 | 1.8 | · | -5 | 0 | 0.9
Cc1cc(C)c(N=Cc2c(O)c3ccccc3oc2=O)c(C)c1 | i | 0.64 | 0.1 | 4 | 2 | 1.8 | 0.6 | · | 1 | 2.2
COc1ccccc1-c1cc2ccccc2[nH]1 | · | 0.67 | 0.3 | · | · | · | · | -3 | -1 | -48
COc1ccc(OC)c2c(C)cc(C)nc12 | · | 0.66 | 0.7 | · | · | · | · | -3 | -12 | 3.6
COc1ccc(OC)c(CCNC(=O)CC2Oc3ccccc3NC2=O)c1 (stereo not given) | i | 0.75 | 0.3 | -2 | -4 | -1.6 | -0.9 | · | 5 | 6.2
Cc1cccnc1NC(=O)Nc1ccccc1 | i | 0.69 | -4.1 | 7 | 6 | 1.3 | 3.7 | -6 | 0 | 0.7
C/C=C/c1ccc(OCCCCN2CCN(CC)CC2)c(OC)c1 | · | 0.69 | -1.1 | · | · | · | 4.3 | 0 | 17 | 4.0
O=C(Nc1ccc(Cc2ccncc2)cc1)c1ccc(Br)o1 | · | 0.67 | -1.0 | · | · | · | · | -5 | 6 | 4.4

Part of the list above in order of length of the SMILES, high to low.
SMILES | FGF22 binding | E coli growth | A1 inh | Ecoli rRNA inh | Ecoli rRNA inh OD600 | Ecoli rRNA inh RFP | AF4-AF9 inh | Beta apoptosis | T cruzi repl | UCH37 DUB inh
CCc1[nH]nc2c1C1(C(=O)N(Cc3ccccc3)c3ccccc31)C(C#N)=C(N)O2 (stereo not given) | · | 0.61 | 0.5 | -39 | -32 | 1.8 | · | -5 | 0 | 0.9
CCOC(=O)CSc1nc(Cc2ccccc2)nc2ccccc12 | i | 0.68 | 0.6 | -39 | -53 | -6.0 | -4.0 | 2 | -9 | 4.6
Cc1cccnc1NC(=O)Nc1ccccc1 | i | 0.69 | -4.1 | 7 | 6 | 1.3 | 3.7 | -6 | 0 | 0.7

Continuation.
SMILES | FGF22 binding | E coli growth | A1 inh | Ecoli rRNA inh | Ecoli rRNA inh OD600 | Ecoli rRNA inh RFP | AF4-AF9 inh | Beta apoptosis | T cruzi repl | UCH37 DUB inh
O=C(NC1CCCCC1)C(c1c(F)cccc1Cl)N(C(=O)c1csnn1)C1CC1 (stereo not given) | i | 0.67 | 1.2 | 1 | -1 | 0.6 | -0.9 | -2 | 5 | 3.7
Cc1cc(C)nc(N2CCN(c3nc(-c4ccccc4)nc4c3oc3ccccc34)CC2)n1 | i | 0.68 | · | 12 | 3 | -0.5 | -14 | · | · | 1.4
COc1cc(O)c(/C=N/NC(=O)c2ccncc2)c(OC)c1[N+](=O)[O-] | i | · | 0.0 | 7 | 3 | 0.2 | 3.4 | -5 | -4 | ·
COc1cc2c(C(=O)OCCN(C)C)c(CSc3ccccc3)n(C)c2cc1Br | i | 0.66 | -0.7 | -9 | 3 | -3.8 | 0.0 | -9 | 34 | 0.7
